UUG fidelity: yeast start codon fidelity modulation | S. cerevisiae UUG-firefly luciferase reporter, luminescence/redox ratio | activity score, % at 18.7 µM | 0.13% of 350,000 active;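 active means replicate mean at a twofold rise or more, about +100% in these data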;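 further: firefly luciferase made from a UUG start codon reports start codon fidelity; reporter light over untreated wells divided by growth signal over untreated wells; some hits fall short of that in this replicate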
MT1-MMP act inh: inhibitors of human MT1-MMP activation. 0.061% of 360,000 active. GFP/RFP ratio change, % at 20 µM. P50281. HT1080 RFP-PRO-GFP cells, GFP/RFP ratio fluorescence, overnight; percent of plate control window, DMSO zero. AID 651647;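 active means GFP/RFP ratio change of at least 30% with cell ATP level not reduced by more than half and red fluorescence within 50% of control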; further: strong numbers were not always called active
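Read-out: GFP/RFP fluorescence ratio; Test system: RFP-PRO-GFP reporter HT1080 cells; Compound dosing: single-point 20 µM compound, 1% DMSO; Times: overnight compound exposure at 37 °C.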
PABP polyA inh: PABP-poly(A) binding inhibition; P11940; PABP-poly(A) RNA binding, fluorescence polarization; inhibition, % at 35 µM; 1% of 290,000 active; AID 2014;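 active means 50% or more with normal probe brightness, or confirmed in later tests; inconclusive means above 50% with abnormal brightness, or retests that disagree; inactive means below 50% or failed in later tests; about a fifth of its hits are not listed in these tables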;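 further: calls also rest on retests at 20 µM and on dose response follow-up; controls were probe without protein and protein plus probe with vehicle; some compounds called inactive have numbers as strong as hits; many hits fall short of the cut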
HIV Env fusion: blocks HIV Env-driven cell-cell fusion; HeLa-JRFL Env/CEM21 cell fusion, luciferase; inhibition, % at 12.3 µM; 1.1% of 360,000 active;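 active means mean replicate inhibition score of at least 50 and every replicate individually at or above 50; inconclusive means only one of the two criteria met; inactive means mean below 50 and not all replicates reaching 50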;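 further: 0% = plate neutral controls and 100% = maraviroc near 300 nM; one replicate is shown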
CSC inhib: blocks cancer stem cells; cancer stem cell-like cells viability, luminescence; inhibition, % at 7.5 µM; 1.1% of 300,000 active; AID 2717;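 active means mean at 75% or more and at least half the replicates too; inconclusive means mean and replicates disagree; tested in HMLE shEcad cells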;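 further: 0% = median of negative and 100% = median of positive control wells; the first replicate is given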
eIF4H inh: inhibitors of RNA binding by human eIF4H. inhibition, % at 35 µM. eIF4H fluorescence polarization binding assay. 0.94% of 290,000 active. Q15056;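 active means 50% or more with normal probe brightness, or confirmed in later tests; inconclusive means above 50% with abnormal brightness, or retests that disagree; inactive means below 50% or failed in later tests; about a fifth of its hits are not listed in these tables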;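 further: calls also rest on retests at 20 µM and on dose response follow-up; 0% = protein and probe with vehicle and 100% = probe without protein; strong numbers were not always called active; many hits fall short of the cut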
Rce1 inhib: blocks yeast Ras-converting enzyme; AID 2563; 0.27% of 290,000 active; yeast membranes, quenched prenylated peptide cleavage fluorescence; calls only;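 active means fall in fluorescence gain of 50% or more versus controls, with final raw signal at or below 3038400; inconclusive means same 50% fall but final raw signal above 3038400; inactive means fall in fluorescence gain under 50%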;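 further: plate controls were neutral control wells for no effect and wells lacking membranes for full effect; tested at 10 µM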
Target sequence (Q03530 whole entry, looked up): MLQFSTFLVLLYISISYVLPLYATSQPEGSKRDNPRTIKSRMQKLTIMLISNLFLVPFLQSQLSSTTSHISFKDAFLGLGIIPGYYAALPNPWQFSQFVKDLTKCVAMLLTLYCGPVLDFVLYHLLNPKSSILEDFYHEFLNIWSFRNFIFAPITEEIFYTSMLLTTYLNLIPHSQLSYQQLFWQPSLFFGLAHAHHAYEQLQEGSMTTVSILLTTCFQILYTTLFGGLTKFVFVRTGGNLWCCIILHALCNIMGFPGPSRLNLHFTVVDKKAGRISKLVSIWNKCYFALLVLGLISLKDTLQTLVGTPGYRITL
eIF4H inh retest: further read-out of eIF4H inh, marked with its call; inhibition, %; compound at 20 µM; confirmation average;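 mean of two retest wells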
PABP polyA inh retest: second read-out of PABP polyA inh, no call of its own (marks repeat the call); inhibition, %; compound at 20 µM; confirmation repeats;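 mean of two retest wells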
MT1-MMP act inh RFP: recorded beside MT1-MMP act inh, whose call it bears; RFP signal change, %; measured here: RFP expression control read;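 0 = vehicle wells; hits needed this value within 50% of zero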
Numbers without * were called inactive; i = inactive; ? = inconclusive; / = no result given; & = joins results of further samples.

SMILES	UUG fidelity	MT1-MMP act inh	MT1-MMP act inh RFP	PABP polyA inh	HIV Env fusion	CSC inhib	eIF4H inh	Rce1 inhib	others
CSc1nnc2c3cc(C)ccc3n(Cc3ccccc3)c2n1	/	0	0	39	/	/	-18	i
Cc1ccc(C(=O)NC(NCc2ccccc2)C(Cl)(Cl)Cl)cc1 (stereo unspecified)	-16	2	3	-2	/	20	7	i
CCC(=O)OC1(C)C(=O)C=C2C=C(C3CC3)OC=C2C1=O (stereo unspecified)	-2	11	7	/	/	-3	/	i
Cc1ccc(NC(=O)N/C=C/c2ccco2)cc1	-14	-5	3	3	-192	4	12	i
Cc1ccc(C2CC(c3ccccc3)=NN2C(=O)CSc2nnc(-c3ccc(Cl)cc3)o2)o1 (stereo unspecified)	-10	-2	0	-4	/	16	-6	i
N#C/C(C(=S)Nc1ccccc1)=C1/NN=C(N2CCOCC2)N1c1ccccc1	-63	2	6	-15	-8	-9	8	i
CN(CC(=O)Nc1ccc(F)c(F)c1F)C(=O)CN1C(=O)C2CCCCC2C1=O (stereo unspecified)	-9	-1	2	2	/	-10	-6	i
N#CC1=C(N)Oc2n[nH]c(-c3cccs3)c2C1c1cccs1 (stereo unspecified)	-15	3	1	24	/	-13	5	i
CN1/C(=C\C(=O)COC(=O)c2ccc([N+](=O)[O-])o2)C(C)(C)c2ccccc21	/	7	2	10	-5	36	0	i
CCCCCCc1ccc(OCC(=O)OC)cc1OCC(=O)OC	/	3	4	3	/	0	6	i
O=C(Cc1ccc(NS(=O)(=O)c2cccc(C(F)(F)F)c2)cc1)NCCN1CCOCC1	-9	1	4	/	3	-10	/	i
CC(=O)NN1C(=O)/C(=C\c2ccccc2)SC1=S	-8	6	8	1	-30	-11	-8	i
Nc1nc(Nc2ccccc2F)sc1C(=O)c1ccccc1	/	-5	-9	8	-209	56	-3	i
c1ccc(-c2nc3ccccn3c2NC2CCCC2)nc1	-21	4	-4	3	4	2	11	i
O=C(CN1CCN(c2ccc(O)cc2)CC1)Nc1ccc2c(c1)OCCO2	-23	-1	-1	23	-17	19	4	i
CC1=NN(c2ccccc2)C(=O)C1c1ccccc1 (stereo unspecified)	/	-1	0	17	6	-18	0	i
Cn1c(CCCOc2ccc(Cl)cc2Cl)nnc1SCC(=O)Nc1cccc(F)c1	/	7	0	-5	8	11	3	i
CCc1ccc(/C(C)=N/NC(=O)c2ccccn2)cc1	-20	2	3	3	3	-2	-7	i
CCOc1ccc(C(=O)Nc2ccc(N3CCN(C)CC3)cc2)cc1Br	-19	2	-2	-4	/	5	-2	i
COc1ccc(C2C(C(=O)N3CCN(c4ccccc4)CC3)c3ccccc3C(=O)N2C)cc1OC (stereo unspecified)	9	4	4	1	-52	0	14	i
CC(C)Nc1nc(NC(C)C)nc(N(C#N)C(C)C(=O)N(C)C)n1 (stereo unspecified)	/	/	/	0	/	/	3	i
COc1ccccc1NS(=O)(=O)c1cc(NC(=O)c2cccnc2)ccc1N1CCCCC1	-11	4	-16	/	-71	15	/	/
CCN(CC(=O)Nc1ccccc1OC)C(=O)c1cccc(-n2cccc2)c1	7	1	-2	-14	15	11	-2	i
O=C(N/N=C/c1cccnc1)c1ccccc1OCc1ccc(Cl)cc1	/	/	/	-4	/	19	0	i
COc1ccccc1CCC(=O)OCC(=O)c1c(N)n(CC(C)C)c(=O)n(C)c1=O	1	-7	-20	/	6	5	/	i
The list continues:
SMILES	UUG fidelity	MT1-MMP act inh	MT1-MMP act inh RFP	PABP polyA inh	HIV Env fusion	CSC inhib	eIF4H inh	Rce1 inhib	others
COc1ccccc1/C=C/C(=O)OCC(=O)Nc1cc(C(F)(F)F)ccc1N1CCOCC1	/	1	-6	-16	-3	/	-20	i
COc1ccc(/C=N/N2CCN(c3ccccc3OC)CC2)cc1OC	0	11	3	-5	-7	-14	-8	i
O=C(Nc1ccc(S(=O)(=O)N2CCCCC2)cc1)c1ccc(F)cc1	10	-2	-12	18	-3	/	-3	i
O/N=C/c1ccc(OCc2ccccc2)c(Br)c1	-17	0	0	-12	/	5	-8	i
CCc1nonc1NC(=O)c1oc2ccc(Cl)cc2c1C	-9	3	4	12	-36	/	-8	i
CC(=O)c1ccc(OC(=O)C2CC(=O)N(c3cccc(C)c3)C2)cc1 (stereo unspecified)	-17	-9	-3	-6	9	-10	-5	i
Cc1ccccc1NS(=O)(=O)c1ccc(C(=O)NCC2(N3CCOCC3)CCCCC2)cc1	-7	0	-1	/	3	/	/	/
CCc1cccc2c(C(=O)CN3C(=O)NC(C)(c4cccc5ccccc45)C3=O)c[nH]c12 (stereo unspecified)	/	1	-5	-2	-19	104*	-4	i
COc1ccccc1OCc1nc(-c2ccc([N+](=O)[O-])cc2)no1	/	3	-5	-3	-17	2	-3	i
CCOC(=O)c1ccc(NC(=O)N2CCN(c3ccccc3OC)CC2)cc1	/	-1	-3	-10	12	-13	-7	/
Cc1cc2c(c(=O)n1Cc1cccnc1)C(c1ccccc1)C(C#N)=C(N)O2 (stereo unspecified)	0	1	6	2	/	2	-5	i
Cn1c(CN2CCCC2)c(C#N)c2ccccc21	/	1	5	-15	-52	-8	-2	i
Cc1ccccc1OCCC(=O)N1CCN(S(=O)(=O)c2ccc(Br)cc2)CC1	2	-7	-10	/	13	/	/	/
COc1ccc(CCNc2nc(-c3cccnc3)nc3ccccc23)cc1OC	-11	-7	-7	-3	20	/	0	i
CC(C)(C)c1ccc(Oc2ccc(NC(=O)c3ccco3)cn2)cc1	/	-13	-14	-2	11	99*	3	i
O=C(NC(=S)Nc1ccccc1N1CCOCC1)c1ccc(-c2ccccc2F)o1	-22	-3	-3	8	14	29	-7	i
COc1ccc(C2=NN(C(=O)CSc3nnnn3C)C(c3ccco3)C2)cc1 (stereo unspecified)	9	0	0	/	3	/	/	/
Cc1ccc(CN(C)C(=O)COC(=O)CSc2cc(C)c3ccccc3n2)cc1	-3	-1	5	/	/	-12	/	/
CSCC[C@H](NC(=O)OC(C)(C)C)C(=O)N1CCC(C(=O)N[C@@H](C)C(=O)O)CC1	1	2	3	8	/	/	-8	i
Cc1cc(C)c(C(N)=O)c(Nc2cccc3ccccc23)n1	-33	2	4	-8	/	17	28	i
Cn1ccnc1SCC(=O)N1CCN(S(=O)(=O)c2ccccc2)CC1	-19	-5	-2	4	7	-11	3	i
O=C(COC(=O)/C=C/c1ccc2c(c1)OCO2)NCc1ccc(F)cc1	-19	3	4	/	23	/	/	/
Clc1ccc(-c2nnc(-c3cccc4ccccc34)o2)cc1Cl	-3	2	-2	3	-5	-4	-2	i
CCOC(=O)c1c(-c2ccc(OC)cc2)csc1NC(=O)CSc1ncnc2sccc12	/	-7	-15	-6	4	6	-8	i
Cc1csc(NC(=O)c2ccc(C)c(S(=O)(=O)N3CCCCC3)c2)n1	/	-9	-1	-5	-9	3	-5	/
Remaining list, next part
SMILES	UUG fidelity	MT1-MMP act inh	MT1-MMP act inh RFP	PABP polyA inh	HIV Env fusion	CSC inhib	eIF4H inh	Rce1 inhib	others
C[C@H](CO)N1C[C@H](C)[C@@H](CN(C)Cc2ccncc2)Oc2c(NS(=O)(=O)c3ccc(Cl)cc3)cccc2C1=O	-6&-4	0	5	/	-67	/	/	/
COc1ccc(CCC(=O)NCC23CC4CC(CC(C4)C2)C3)cc1	-3	4	3	-1	20	-21	-9	i
COc1ccc(S(=O)(=O)NCCc2cc3ccc(C)c(C)c3[nH]c2=O)cc1	-17	2	-4	4	0	-4	10	i
O=C(CSc1ccc(-c2ccccn2)nn1)NCc1ccccc1	/	1	5	3	-13	-8	-5	i
Nc1nonc1-n1nnc(C(=O)N/N=C/c2ccc3c(c2)OCO3)c1-c1ccccc1	-11	2	5	10	4	/	-3	i
OC1CCCN(Cc2cn(Cc3ccccc3)nc2-c2cc3ccccc3o2)C1 (stereo unspecified)	/	7	-2	1	14	-13	8	i
Cc1nn(-c2ccccc2)c(Cl)c1C(=O)NCc1cccs1	/	0	3	23	/	-7	6	i
C=CCNC(=O)COC(=O)C1CCN(S(=O)(=O)c2ccc3c(c2)OCCO3)CC1	2	3	5	12	-6	16	-4	i
Cc1cccc2cc(CN(Cc3ccc4c(c3)OCO4)Cc3nnnn3C3CCCC3)c(=O)[nH]c12	1	-10	-10	4	/	5	0	i
CCC(C)NC(=O)Nc1ccc(F)c(Cl)c1 (stereo unspecified)	-2	-1	-2	11	6	/	1	i
OC(CNC1CCCC1)COc1ccc(F)cc1 (stereo unspecified)	-7	-4	-1	-4	3	4	-5	i
CC(O)C(C(=O)OCc1ccc([N+](=O)[O-])cc1)N1C(=O)c2ccccc2C1=O (stereo unspecified)	/	2	3	2	-11	-7	2	/
c1ccc(-c2cncnc2)nc1	5	3	3	/	10	-8	/	/
Cc1[nH]c2c(ccc3cccnc32)c1C	-4	/	/	-4	-29	13	2	i
CCN(CCCNC(=O)C1CCN(S(=O)(=O)CC)CC1)c1cccc(C)c1	-5	0	-7	28*	/	-8	90*	/	eIF4H inh retest=108*;PABP polyA inh retest=52*
CCc1ccc(NC(=O)N(CCCOC(C)C)C2CCN(C(C)=O)CC2)cc1	-21	3	-3	1	-21	-9	-12	i
O=[N+]([O-])c1cccc(/C=N/N2CCN(Cc3ccccc3)CC2)c1	-8	0	6	-15	-25	-5	6	i
Cc1oc(-c2ccccc2Cl)nc1CS(=O)CC(=O)NCCCN1CC(C)CC(C)C1 (stereo unspecified)	-8	-2	3	20	5	-16	9	i
O=C(CSc1nccn1-c1ccccc1)c1ccc(Cl)cc1	-19	0	-5	-12	/	7	-11	i
Cc1ccc(/C=N/n2c(-c3cccnc3)n[nH]c2=S)s1	/	5	5	-5	-11	-4	0	i
COc1cccc(C(=O)Nc2ccc3ccccc3c2)c1	-48	4	-1	-2	-272	29	1	i
COc1cc(/C=C2/C(=O)ON=C2C)cc(Cl)c1O	-6	-3	7	?	17	-19	?	i
N#CC1=C(N)OC2=C(C(=O)CC(c3ccccc3)C2)C1c1cccnc1 (stereo unspecified)	/	-3	-6	7	/	-9	-5	i
Cn1c(=O)c([N+](=O)[O-])c(N2CCN(Cc3ccc4c(c3)OCO4)CC2)c2ccccc21	3	3	-6	17	3	8	19	i
Cc1cccc(NC(=O)C2C3C=CC(C4CC34)C2C(=O)O)c1 (stereo unspecified)	2	3	3	-5	/	35	-12	i
CN(CC(=O)Nc1cccc(S(=O)(=O)N2CCCC2)c1)Cc1ccccc1	-1	1	-3	/	9	9	/	/
N#CCCN/N=C(\Cc1nc2ccccc2[nH]1)c1ccccc1	-22	-21	1	32	-47	-2	13	i
Cc1cc(C(=O)N2CCC2(C)C(=O)NS(=O)(=O)c2ccccc2Cl)nn1C (stereo unspecified)	-5	-1	4	/	0	/	/	/
CCC(Sc1ncccc1C(=O)O)C(=O)N1CCCC1 (stereo unspecified)	-4	-1	3	-3	/	2	7	i
CSCC[C@H](NC(=O)OC(C)(C)C)C(=O)N1CCC(C(=O)N[C@@H](Cc2c[nH]c3ccccc23)C(=O)O)CC1	20	-7	1	-10	-10	-13	-8	i

Three entries from above, arranged by molar mass, lowest first:
SMILES	UUG fidelity	MT1-MMP act inh	MT1-MMP act inh RFP	PABP polyA inh	HIV Env fusion	CSC inhib	eIF4H inh	Rce1 inhib	others
Cc1ccc(/C=N/n2c(-c3cccnc3)n[nH]c2=S)s1	/	5	5	-5	-11	-4	0	i
N#CCCN/N=C(\Cc1nc2ccccc2[nH]1)c1ccccc1	-22	-21	1	32	-47	-2	13	i
CC(O)C(C(=O)OCc1ccc([N+](=O)[O-])cc1)N1C(=O)c2ccccc2C1=O (stereo unspecified)	/	2	3	2	-11	-7	2	/

Bioassay records as filed in PubChem.
